GLA inh pH 4.5: qHTS Assay for Inhibitors of Human alpha-Galactosidase at pH 4.5; Alpha-galactosidase A (Homo sapiens), P06280; purified enzyme, 4-MU-alpha-Gal fluorescence, pH 4.5; AID 1467, 2008; activity change, negative = inhibition, % at 105 µM; 230,000 tested, under 10 active; inconclusive = small, poorly fitted or top-dose-only inhibition, or a rising curve; inactive = flat fitted curve, though single readings scatter; no compound was filed as active;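 also: 0% = full activity with enzyme and -100% = basal without enzyme; dose as in the result columns while the protocol names 77 µM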
Target sequence (P06280 whole entry, looked up): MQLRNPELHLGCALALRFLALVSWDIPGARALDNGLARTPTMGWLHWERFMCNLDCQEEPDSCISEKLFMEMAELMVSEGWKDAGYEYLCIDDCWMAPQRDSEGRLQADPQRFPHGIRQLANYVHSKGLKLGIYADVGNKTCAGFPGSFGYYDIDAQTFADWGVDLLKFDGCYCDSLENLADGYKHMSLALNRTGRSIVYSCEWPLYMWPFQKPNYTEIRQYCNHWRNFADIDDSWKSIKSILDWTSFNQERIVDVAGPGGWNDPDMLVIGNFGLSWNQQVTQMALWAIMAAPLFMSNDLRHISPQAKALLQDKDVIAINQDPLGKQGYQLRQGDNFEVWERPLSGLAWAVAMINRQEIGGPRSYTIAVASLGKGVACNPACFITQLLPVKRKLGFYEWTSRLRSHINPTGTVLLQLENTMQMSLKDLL
Rango dissoc inh: qHTS Assay for Inhibitors of RanGTP induced Rango (Ran-regulated importin-beta cargo) - Importin beta complex dissociation | Potency, µM (series often up to 46.1 µM), without a hit: top-dose activity change, negative = inhibition | Biochemical FRET Rango-importin beta, RanGTP-induced dissociation | Snurportin-1 (Homo sapiens) + GTP-binding nuclear protein Ran (Homo sapiens) + Importin … | 340,000 compounds, 0.071% hits; active means falling FRET ratio curve, often poorly fitted, with flat reads before Ran was added; inconclusive means other falling curves, or compound fluorescence or quenching; inactive means flat or rising ratio curve;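 also: potency is read from the fitted curve at half-maximal effect; % of control where 0% means no effect; nearly all actives have a fitted effect of over 45% in size; -100% = wells without RanGTP and RCC1; the record marks most hits as doubtful in a second field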
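Rango (0.1 uM)–importin beta (0.25 uM) complex; RanGTP-RCC1 trigger; 45 min RT; CFP/YFP FRET read.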
Rango complex inh: qHTS Assay for Inhibitors of Rango (Ran-regulated importin-beta cargo) - Importin beta complex formation. Importin subunit beta-1 (Homo sapiens), Q14974. Rango CFP/YFP FRET sensor + importin beta, 45 min. Potency, µM (titrated, usually from 92.2 µM), inactives show at the top dose inhibition of complex formation. 340,000 compounds, 0.031% hits. AID 540263, 2011; active = rising FRET ratio curve, often small or poorly fitted; inconclusive = mostly compound fluorescence or quenching in the first reads; inactive = flat curves in all reads;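 also: potency is read from the fitted curve at half-maximal effect; 0% = DMSO wells and 100% = buffer wells lacking importin beta; nearly all actives have a fitted effect of over 15% in size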
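FRET biosensor (snurportin 1 IBB flanked by EYFP and cerulean), 50 nM, with compound 5 min, then 0.125 microM importin beta in PBS, 1 mM DTT, 0.02% Tween-20, 0.1% BSA. CFP/YFP ratio read after 45 min at room temperature; pre-read flags interference.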
miR-21 reporter: qHTS Assay for Modulators of miRNAs and/orActivators of miR-21. Potency, µM (doses to about 38.3 µM), inactives show at the highest dose reporter change, positive = more light. 340,000 tested, under 10 active. HeLa miR-21 FLuc reporter, luciferase, 48 h; active = well fitted rising curve with a large enough effect; inconclusive = small, poorly fitted or top-dose-only effect; inactive = no such curve, though single readings can be large or run the other way;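 also: % of control where 0% means no effect; miR-21 action dims this reporter so a rising signal means less miR-21 action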
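Compounds were titrated across several concentrations (up to approximately 40 uM) and incubated 48 hours with HeLa miR-21-FLuc reporter cells (miR-21 target sequence downstream of FLuc, endogenous miR-21). Readout was firefly luciferase luminescence after lytic detection reagent.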
Numbers without * were called inactive; ? = inconclusive; . = no result given.

SMILES | GLA inh pH 4.5 | Rango dissoc inh | Rango complex inh | miR-21 reporter
Cc1ccc(S(=O)(=O)N2CCCCC2C(=O)O)s1 (stereo not given) | 1 | 0% | -0.5% | 0%
O=C(O)CC(SCC(=O)Nc1ccc(Cl)c(S(=O)(=O)N2CCOCC2)c1)C(=O)O (stereo not given) | -2 | 8% | -0.6% | 1%
C=CCn1c(=O)c2c(C)c(C)sc2n2c(Nc3ccc(OC)cc3)nnc12 | -13 | 10% | 1.7% | -12%
O=C(COc1ccc(F)cc1)Nc1c(C(=O)N2CCC(N3CCCCC3)CC2)oc2ccccc12 | . | ? | -0.4% | 7%
Oc1[nH]c2ccccc2c1C=Nc1ccccc1 | 3 | ? | ? | -46%
Fc1ccc(-n2cc(-c3ccccc3)c3c(=S)nc[nH]c32)cc1 | . | 12% | 0.3% | 13%
COc1ccc(S(=O)(=O)N2CCC(C(=O)Nc3cc(Cl)ccc3N3CCOCC3)CC2)cc1OC | . | -4% | -5.0% | .
CCOc1cc(/C=N/O)cc(Br)c1OC | 6 | 0% | -1.1% | -3%
NC(=O)CC(NC(=O)c1ccc(Br)cc1)c1ccc(N2CCCCCCC2)c([N+](=O)[O-])c1 (stereo not given) | . | -8% | 5.0% | 15%
Clc1ccccc1OCCCCn1ccnc1 | -4 | -8% | -2.7% | -15%

Whole records from above.
`C=CCn1c(=O)c2c(C)c(C)sc2n2c(Nc3ccc(OC)cc3)nnc12` is listed with GLA inh pH 4.5: -13; Rango dissoc inh: 10%; Rango complex inh: 1.7%; miR-21 reporter: -12%
`CCOc1cc(/C=N/O)cc(Br)c1OC` is listed with GLA inh pH 4.5: 6; Rango dissoc inh: 0%; Rango complex inh: -1.1%; miR-21 reporter: -3%
`COc1ccc(S(=O)(=O)N2CCC(C(=O)Nc3cc(Cl)ccc3N3CCOCC3)CC2)cc1OC` is listed with GLA inh pH 4.5: .; Rango dissoc inh: -4%; Rango complex inh: -5.0%; miR-21 reporter: .

Additional entries
SMILES | GLA inh pH 4.5 | Rango dissoc inh | Rango complex inh | miR-21 reporter
CC(C)c1ccc(/C=N/N2CCCCC2)cc1 | 7 | -1% | -1.6% | -5%
O=C(c1cccc(S(=O)(=O)N2CCCCC2)c1)N1CCN(Cc2ccccc2)CC1 | . | -10% | 0.4% | .
Cc1ccc2c(c1)C(=O)N1[C@H]3c4cc(Cl)ccc4OC[C@@H]3[C@H](c3ccccc3)[C@]1(C)C(=O)N2 | . | 21% | 1.9% | .
CCCn1c(N)c(N(CCOC)C(=O)c2ccccc2)c(=O)[nH]c1=O | . | 2% | 0.9% | 3%
COCCN1C(=O)C(C(=O)OC)CC2=C1CC(C)(C)CC2=O (stereo not given) | . | -20% | 4.2% | .
O=C(NC(NC(=S)Nc1ccc(Cl)c(Cl)c1)C(Cl)(Cl)Cl)c1ccco1 (stereo not given) | -7 | -7% | -0.8% | 16%
Cc1cc(C(=O)O/N=C(\N)c2ccc(C(C)(C)C)cc2)no1 | -2 | -7% | 0.0% | -40%
CC(=O)Nc1ccc(OCCCNC(=O)c2c(-c3ccccc3)noc2C)cc1 | 3 | 6% | -1.3% | 12%
COc1ccc(CN2CCNC(=O)C2CC(=O)N(C)Cc2ccon2)c(OC)c1 (stereo not given) | 5 | 2% | -0.3% | 2%
COc1ccc(S(=O)(=O)NC2CCCCC2)cc1-n1cnnn1 | 2 | 15% | 1.0% | -10%
O=C(CSc1nnc(-c2ccncc2)n1-c1ccc(Cl)cc1)NCc1cccs1 | 3 | 2% | -0.3% | -18%
COc1cc2ccccc2cc1C(=O)Nc1ccc(Cc2ccncc2)cc1 | -19 | 2% | 8.2% | 13%
Cc1ccc(O)c(NC(=S)NC(=O)c2ccccc2Cl)c1 | 5 | 8% | 0.4% | -9%
COc1ccccc1OC(=O)c1cc(Cl)nc2ccccc12 | -3 | 6% | -2.5% | -1%
Cc1cc(OC(=O)c2ccc(S(=O)(=O)N3CCOCC3)cc2)c([N+](=O)[O-])c(=O)[nH]1 | -7 | -10% | 2.5% | 0%
O=C(CSc1n[nH]c(-c2ccncc2)n1)NC1CCS(=O)(=O)C1 (stereo not given) | 5 | -19% | ? | 1%
COc1ccc(-c2cc(C(F)(F)F)nc(N3CCCCC3)n2)cc1OC | -7 | -7% | 1.0% | -4%
CCOC(=O)CSc1nnc(-c2ccc(NS(=O)(=O)c3ccc(C)cc3)cc2)o1 | -5 | 3% | -0.5% | -4%
COc1cccc(CN2CCN(S(=O)(=O)c3ccc(Br)cc3)CC2)c1 | -2 | -10% | -4.4% | -10%
COc1ccc(/C=N/Nc2cc(C)nc(N)n2)cc1 | -5 | -7% | 0.7% | -56%
CCOC(=O)C1CCN(C(=O)COC(=O)/C=C/c2cccc(OC)c2OC)CC1 | . | 0% | 0.2% | .
CSc1ncccc1C(=O)N(C)CC(=O)Nc1ccc(Cl)cc1 | . | 19% | 0.1% | 3%
CCN(CC(=O)Nc1ccc(NC(C)=O)cc1)C(=O)CN1C(=O)NC2(CCCC2)C1=O | . | -7% | 6.2% | .
CC(OC(=O)c1cc2ccccc2cc1O)C(=O)Nc1ccc(S(N)(=O)=O)cc1 (stereo not given) | 0 | 8% | ? | -8%
CC1CN(C(=O)C2CCCCC2)C(C)CN1C(=O)C1CCCCC1 (stereo not given) | 2 | -7% | -2.2% | -5%
O=C(NCCc1ccco1)C(=O)NCC1CCCN1S(=O)(=O)c1ccccc1 (stereo not given) | . | 1% | -2.7% | .
CC(C)[C@H](NC(=O)N1CCn2c1nc1ccccc12)C(=O)NCc1ccco1 | . | 3% | -1.3% | 5%
Cc1ccc(/C=C2\SC(=S)N(CCC(=O)Nc3ccc(O)cc3)C2=O)cc1 | . | -14% | 4.4% | -3%
COc1ccc(N2C(=O)CSC2c2ccncc2)cc1 (stereo not given) | -1 | -11% | -1.1% | -5%
CCOC(=O)C1C(C(=O)NN)C1C(=O)Nc1ccccc1 (stereo not given) | 1 | 12% | 0.6% | 0%
Cc1ccc(Nc2nc(-c3ccc(S(=O)(=O)N4CCOCC4)cc3)cs2)cc1 | . | -5% | -7.4% | .
COc1ccc(CCNC(=O)c2ccc3c(c2)SC2=NS(=O)(=O)CCN23)cc1 | 9 | -10% | -1.2% | -9%
CC(=O)Nc1ccc(NC(=O)C2CCCN(c3nnc(-n4cccc4)s3)C2)cc1 (stereo not given) | 2 | ? | -0.6% | -11%
CC1(C)CC2CC(C)(CN2S(=O)(=O)c2ccc(C(=O)Nc3ccc(Cl)c(S(=O)(=O)N4CCOCC4)c3)cc2)C1 (stereo not given) | -29 | 10% | -2.9% | ?
Cc1nn(-c2ccccc2)c(C)c1C(=O)N1CCN(S(=O)(=O)c2ccccc2)CC1 | . | -16% | -3.5% | .
CN(C(=O)c1ccc(NC(=O)Cc2ccc(NC(=O)C3CCN(C(=O)C4CCCCC4)CC3)cc2)cc1)C1CCCC1 | . | -9% | 1.5% | .
OC(CN1CCC(Cc2ccccc2)CC1)C(F)(F)F (stereo not given) | . | 8% | -0.9% | 0%
Cc1ccc(N2C(=O)C3C4C=CC(CC4)C3C2=O)cc1Cl (stereo not given) | . | 8% | -1.5% | 9%
CC1(C)CC(NC(=O)Cc2ccccc2)CC(C)(C)N1 | . | 9% | 6.6% | 2%
CCCCCC(=O)N1CC2(C)CN(C(=O)CCCCC)CC(C)(C1)C2=O | 6 | 18% | 0.9% | -1%

Retrieved one by one from the list above:
SMILES | GLA inh pH 4.5 | Rango dissoc inh | Rango complex inh | miR-21 reporter
Cc1ccc(Nc2nc(-c3ccc(S(=O)(=O)N4CCOCC4)cc3)cs2)cc1 | . | -5% | -7.4% | .
Cc1nn(-c2ccccc2)c(C)c1C(=O)N1CCN(S(=O)(=O)c2ccccc2)CC1 | . | -16% | -3.5% | .
Cc1ccc(N2C(=O)C3C4C=CC(CC4)C3C2=O)cc1Cl (stereo not given) | . | 8% | -1.5% | 9%
CCCCCC(=O)N1CC2(C)CN(C(=O)CCCCC)CC(C)(C1)C2=O | 6 | 18% | 0.9% | -1%
CN(C(=O)c1ccc(NC(=O)Cc2ccc(NC(=O)C3CCN(C(=O)C4CCCCC4)CC3)cc2)cc1)C1CCCC1 | . | -9% | 1.5% | .

The list goes on.
SMILES | GLA inh pH 4.5 | Rango dissoc inh | Rango complex inh | miR-21 reporter
CN(c1ccccc1)S(=O)(=O)c1ccc(NC(=O)c2ccccc2)cc1 | -4 | -17% | ? | 3%
COc1ccc(CCNC(=O)c2nc3ncccn3n2)cc1OC | 0 | -15% | -1.9% | -4%
S=C(NCCc1ccccc1)N1CCN(C(=S)NCCc2ccccc2)CC1 | . | 1% | 8.1% | .
O=c1cc(O)c2ccccc2n1Cc1ccccc1Cl | -5 | 4% | 2.8% | -2%
CCCn1c(N)c(Sc2ccccc2)c(=O)n(CCC)c1=O | -1 | 8% | -2.8% | 0%
O=C(CC(=O)N/N=C/c1ccc(O)cc1)N/N=C/c1ccc(O)cc1 | -2 | 17% | -2.8% | 3%
CN(C)C(/C=C/Nc1ccc(F)cc1)=C(C#N)C#N | 9 | 0% | 4.4% | -5%
Cc1ccc(C(=O)Nc2nc(=O)n(C(=O)CC(C)C)s2)cc1 | 1 | 2% | -1.4% | -14%
Clc1ccc(SCc2csc(N3CCOCC3)n2)cc1 | -1 | -4% | 5.8% | -23%
COCCCNC(=O)Cn1c(=O)n(CCCCCC(=O)NCc2ccc3c(c2)OCO3)c(=O)c2sccc21 | -4 | 1% | -0.2% | 1%
COc1ccc(S(=O)(=O)N/N=C(/C)c2ccncc2)c(OC)c1 | . | -2% | 0.5% | -1%
O=C(NCc1ccccc1CN1CCCC1)c1cccc(N2CCCC2=O)c1 | . | 2% | 1.9% | .
CN(CC(=O)O)c1ccc(S(=O)(=O)N2CCOCC2)cc1[N+](=O)[O-] | 5 | 1% | -1.0% | 1%
FC(F)(F)c1nc2ccccc2nc1N/N=C/c1c(Cl)cccc1Cl | -1 | 0% | 1.6% | -4%
O=c1cc(N2CCN(Cc3ccccc3)CC2)[nH]c(=O)n1Cc1ccc(F)cc1 | -1 | 1% | 0.6% | 1%
CCOc1ccc(N(CC(=O)N2CCN(c3ccccc3OC)CC2)S(=O)(=O)c2ccc(F)cc2)cc1 | . | 19% | 2.4% | 4%
CCc1nnc(NC(=O)CSc2nnc(-c3ccc(S(=O)(=O)N(CC)CC)cc3)n2CC)s1 | 4 | 39% | 6.5% | 2%
O=C(CN1CCN(C(=O)c2ccc(-c3nc4ccccc4s3)o2)CC1)Nc1ccccc1Cl | . | -4% | 5.0% | .
CC(C)OC(=O)Cn1cc(C#N)c2ccccc21 | -5 | -2% | 3.0% | -6%
CCCCOCCCNC(=O)CN1C(=O)c2ccccc2C1=O | 4 | 16% | 3.6% | -1%
Nc1ccn([C@@H]2O[C@H](CO)[C@@H](O)[C@@H]2O)c(=O)n1 | 0 | 0% | -0.6% | 13%
Cc1ccc(S(=O)(=O)Cc2ccc(C(=O)N3CCC(C(N)=O)CC3)o2)cc1 | . | 0% | -0.5% | 3%
CCOC(=O)C(NC(=O)CC)(Nc1ccccc1)C(F)(F)F (stereo not given) | -5 | -1% | 4.4% | -10%
CCc1c(C)c2ccc(OCC(=O)N(C)C)c(C)c2oc1=O | 4 | 6% | 9.9% | -33%
Cc1ccccc1C(=O)N1CCN(c2ccc(NC(=O)c3ccco3)cc2)CC1 | . | -15% | 1.7% | -1%
COc1ccc(C(=O)N2CCN(c3ccc(NC(=O)c4ccco4)cc3)CC2)cc1 | . | -20% | -0.7% | 7%
CC(=O)c1ccc(N(CC(=O)NC2CCCC2)C(=O)c2ccc(C)s2)cc1 | . | -9% | -3.2% | 0%
COc1ccc([C@H]2CC(=O)C=C(c3cccc(F)c3OC)C2)cc1 | . | -5% | 1.3% | .
CC1CN=C(NC2CCCCC2C)S1 (stereo not given) | -18 | 3% | -2.7% | -3%
COc1ccc(N2C(=O)CCC(C(=O)O)C2c2ccccc2OC)cc1 (stereo not given) | 3 | -10% | -1.0% | 2%

Screening data as filed in PubChem BioAssay.

Some of the compounds tested. The share of hits here may be higher or lower than overall.
